ALR H2O2 inh: inhibitors of human ALR sulfhydryl oxidase, primary screen, biochemical, H2O2 detection, HRP-luminol luminescence, single point; purified ALR, DTT oxidation; inhibition, % (no concentration beside the values); hit rate 3.8% among 290,000; AID 485317, 2010;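 active means mean and each replicate at 75% or more; inconclusive means only one of the two met; inactive means neither met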;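 further: stock transfer was 7.5 nL into about 7.5 µL; 0% = neutral wells and 100% = wells with inactivated enzyme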
Target sequence (P55789 whole entry, looked up): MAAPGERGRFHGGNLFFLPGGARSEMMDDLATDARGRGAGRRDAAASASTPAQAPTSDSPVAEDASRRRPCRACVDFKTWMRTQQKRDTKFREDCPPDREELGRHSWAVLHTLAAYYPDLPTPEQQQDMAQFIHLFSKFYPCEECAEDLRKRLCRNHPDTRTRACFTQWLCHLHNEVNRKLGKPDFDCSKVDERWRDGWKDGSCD
MLL AF4-AF9 inh: inhibitors of AF4 peptide binding to AF9, primary screen, biochemical, AlphaScreen, biotin-AF4 peptide, FLAG-AF9, single point; Protein AF-9 (Homo sapiens), P42568; inhibition, % at 10 µM; hit rate 0.47% among 350,000;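 active means every replicate reaching a set inhibition limit, whatever the replicate mean, cut at about 25% in these data; inconclusive means mean inhibition reaches that limit but some replicates miss it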;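 further: 0% = plate neutral control median and 100% = total signal loss; the record names both 10 and 1 µM as test concentration; the first replicate is given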
Vif TR-FRET: inhibitors of Vif binding to APOBEC3G peptide, primary screen, biochemical, TR-FRET, GST-Vif 1-94, biotin-A3G peptide, dose response retest (AID 1117319) | inhibition, %; hits with a dose series show IC50 in µM | Virion infectivity factor (Human immunodeficiency virus type 1 group M subtype B (isolate … | hit rate 0.57% among 260,000 | TR-FRET GST-Vif / biotin-A3G peptide binding; higher % means a stronger effect; test concentration not given here; strong numbers were not always called active;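 active means above the screen mean plus three standard deviations and confirmed in dose response; inconclusive means results disagree or hit not tested in dose response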;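 further: Vif residues 1-94 fused to GST binding biotinylated APOBEC3G peptide 110-148; 0% = full assay without inhibitor and 100% = GST in place of GST-Vif; retest series ran down from 100 µM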
FGF22 binding: binders of human FGF22 protein, primary screen, FGF22 synaptogenesis inhibitor project, biophysical, thermal shift, single point; Fibroblast growth factor 22 (Homo sapiens), Q9HCT0; recombinant FGF22 thermal shift, SYPRO orange fluorescence; percent of sucrose octasulfate shift, DMSO zero; calls only at 9.99 µM; hit rate 1.5% among 340,000; AID 651658, 2012;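 active means melting point raised past a set limit in the mean and every replicate; inconclusive means no clear call; three in four hits are not shown here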
Target sequence (Q9HCT0 whole entry, looked up): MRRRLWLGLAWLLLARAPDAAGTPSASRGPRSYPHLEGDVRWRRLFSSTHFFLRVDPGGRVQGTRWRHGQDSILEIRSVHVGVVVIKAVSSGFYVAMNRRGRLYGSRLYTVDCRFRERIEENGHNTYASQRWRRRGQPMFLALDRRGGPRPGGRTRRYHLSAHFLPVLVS
rRNA inh HTS: reduced GFP signal of wild-type E. coli, primary screen, bacterial rRNA inhibitor project, GFP/RFP fluorescence, OD600, single point | GFP signal change (wild-type ribosome), % (no concentration beside the values) | E. coli WT GFP vs humanized-ribosome RFP mutants, 24 h; hits give low values; DMSO median 0, no signal -100 | hit rate 1.6% among 350,000 | AID 720706, 2013;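 active means significant combined selectivity score with lowered wild-type GFP, culture density cut under 30%, mutant RFP and density less affected; inactive means any of these conditions unmet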; further: one replicate is shown; some compounds called inactive have numbers as strong as hits
HNF4A DNA FP: change in binding of human HNF4A to DNA, primary screen, biochemical, fluorescence polarization, FITC-DNA. Hepatocyte nuclear factor 4-alpha (Homo sapiens), P41235. 1 h. activity change, % at 10 µM. hit rate 0.3% among 360,000. AID 1224865, 2016; in the data active means activity change above about 30%, passing the limit was not always enough;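 further: controls were the assay level and a saturating level of protein; the project sought stronger binding though the title names inhibitors; some compounds called inactive have numbers as strong as hits; positive values seem to mean higher polarization but the record does not say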
Target sequence (P41235 whole entry, looked up): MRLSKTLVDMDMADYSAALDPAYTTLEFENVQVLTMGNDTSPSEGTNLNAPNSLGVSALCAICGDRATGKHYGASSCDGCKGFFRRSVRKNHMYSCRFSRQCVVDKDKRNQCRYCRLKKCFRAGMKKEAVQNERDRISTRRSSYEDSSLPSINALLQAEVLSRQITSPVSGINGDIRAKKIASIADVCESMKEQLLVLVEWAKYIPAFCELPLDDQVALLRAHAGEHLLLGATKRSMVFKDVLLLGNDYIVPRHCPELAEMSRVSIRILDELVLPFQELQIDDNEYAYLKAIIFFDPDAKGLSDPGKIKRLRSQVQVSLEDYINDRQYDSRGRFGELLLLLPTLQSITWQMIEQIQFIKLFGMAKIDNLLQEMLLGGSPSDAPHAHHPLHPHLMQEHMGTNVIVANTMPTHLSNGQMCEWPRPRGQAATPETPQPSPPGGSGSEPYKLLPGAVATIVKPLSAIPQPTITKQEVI
Ecoli growth: E. coli growth inhibition, primary screen, OD600; AID 1053175, 2014; Escherichia coli growth, 23 h; hits give low values; hit rate 0.21% among 330,000; OD600 absorbance (no concentration beside the values);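 active means OD600 absorbance below the run mean of sample wells minus 3.6 SD, in any replicate, cut at about 0.56 in these data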;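 further: stock transfer was 300 nL into about 60 µL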
rRNA inh HTS OD600: also measured in rRNA inh HTS; calls as there; OD600 change, %; measured here: OD600 growth;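 optical density of the mix in the first replicate; 0 = DMSO median and -100 = no signal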
rRNA inh HTS RFP: also measured in rRNA inh HTS; calls as there; RFP signal change, %; measured here: RFP humanized mutant strains;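 first replicate; 0 = DMSO median and -100 = no signal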
The depositor's hits bear a star; i = inactive; ? = inconclusive; . = no result given.

Value order: ALR H2O2 inh, MLL AF4-AF9 inh, Vif TR-FRET, FGF22 binding, rRNA inh HTS, rRNA inh HTS OD600, rRNA inh HTS RFP, HNF4A DNA FP, Ecoli growth
COc1cc(N=Cc2c(CO)cnc(C)c2O)cc(OC)c1OC
→ 99*, -4.7, ., i, 16, 9, -1.2, -4.1, 0.67
COc1ccc(OCCC(=O)OCC(=O)NCc2ccc(F)cc2)cc1
→ 5, -0.7, 16%, ., 3, 1, 0.4, 3.9, 0.72
Cc1nc2n[nH]c(N)c2nc1C
→ ., -3.9, -4%, i, 1, -1, -0.7, -2.4, .
Cc1ccc(Cl)cc1Nc1nc(N2CCOCC2)nc(N2CCOCC2)n1
→ -8, -0.5, ., i, -5, -13, -1.3, 0.2, 0.67
Cc1cc(OCC(=O)NC(Cc2c[nH]c3ccc(O)cc23)C(=O)O)c2c(C)c(C)c(=O)oc2c1 (stereo not drawn)
→ -9, -2.8, ., i, -7, 3, -0.8, 6.0, 0.72
COc1ccc(NC(=O)Nc2ccc3c(c2)C(=O)N([C@H](C)CO)C[C@@H](C)[C@@H](CN(C)C(=O)CCC(F)(F)F)OCCCC[C@H](C)O3)cc1
→ ., -1.2, ., i, -2, -3, 2.1, ., .
Cc1cccc(OCC(=O)NNC(=O)c2cc(S(=O)(=O)N(C)C)ccc2N2CCCC2)c1
→ 30, -4.0, 0%, i, 4, -7, 0.7, 1.2, 0.67
CCCCN(C(=O)CSc1nnc(Nc2ccccc2)s1)c1c(N)n(CCC)c(=O)[nH]c1=O
→ -3, -0.4, -1%, i, 2, 3, 1.9, -1.6, 0.64
COc1ccc(CN2CC3(CN(C(C)=O)C3)c3c(n(C)c4cc(OC)ccc34)[C@@H]2CO)cc1
→ ., 0.1, ., i, -1, -3, -2.8, ., .
O=C(C1=C[C@H](c2coc3ccccc3c2=O)C[C@H](OCCCCO)O1)N1CCN(Cc2ccccc2)CC1
→ -4, ., 10%, ., ., ., ., 0.3, .
Cc1ccccc1Cc1n[nH]c(=S)n1N
→ 71, ., -6%, ., ., ., ., 2.5, 0.65
CC(=O)Nc1ccc(/C=C/c2ccc3cccc([N+](=O)[O-])c3n2)cc1
→ 12, 4.9, 1%, i, -16*, 1.1*, 3.6*, -1.2, 0.71
CCOC(=O)c1nc2cc3n(c(C)c-2c1C)C(C)C(C)=C3C (stereo not drawn)
→ -5, ., 16%, ., ., ., ., 5.0, 0.78
CCOc1ccccc1N1CC(C(=O)Nc2cccc(S(=O)(=O)N3CCCCC3)c2)CC1=O (stereo not drawn)
→ -1, 3.4, 1%, i, -21*, -7.4*, 5.5*, 0.8, 0.7
Cc1ccc(-c2nn(-c3ccccc3)cc2C(=O)N2CCOCC2)cc1C
→ 0, 1.2, -9%, i, -22, -26, -0.4, -0.3, 0.72
Cc1cccc(-c2ccc([C@@H]3[C@@H](CO)N4CCCCN(S(=O)(=O)c5cn(C)cn5)C[C@H]34)cc2)c1
→ ., 1.9, ., i, 4, 0, 3.1, ., .
O=c1c2ccccc2ncn1CCc1ccncc1
→ ., -8.4, -5%, i, 7, 15, -3.8, -0.7, .
CN1C(=O)c2cc(NC(=O)C3CC3)ccc2OC[C@@H]2O[C@H](CC(=O)NC3CCC3)CC[C@@H]21
→ ., -2.1, ., i, 1, -2, -1.6, ., .
CN(C)CCCNC(=O)C[C@H]1C[C@H](C(=O)N2CCOCC2)[C@@]2(CCC3CCCC3)c3[nH]c4cc(-c5ccco5)ccc4c3CCN2C1=O
→ ., 41*, 6%, i, -18, -8, 12, -0.8, 0.69
C=C(C)C(=O)OCCCCCCOc1ccc(C(=O)O)cc1
→ ., ., 20%, ., ., ., ., -2.8, 0.68
COc1cc(/C=C/C(=O)O)cc(S(=O)(=O)Nc2cc(C(F)(F)F)ccc2N2CCOCC2)c1OC
→ 0, -0.6, ., i, -7, -1, -2.0, 4.6, 0.72
CCC1CCCCN1C(=O)c1sc2nc(C)nc(N(CC)CC)c2c1C (stereo not drawn)
→ -14, 1.5, ., i, 1, -3, -0.1, 3.0, 0.73
COc1ccc(Cc2noc(CN3CCN(C4CCc5ccccc5C4)CC3)n2)cc1OC (stereo not drawn)
→ -51, 4.9, -3%, i, -2, -4, 0.8, -1.6, 0.68
COc1ccccc1/C=C/C(=O)OCC(=O)NNC(=O)c1ccccc1
→ -18, ., 6%, ., ., ., ., -0.9, 0.64
Cc1cc(C)c2oc(-c3ccc(C)c(NC(=S)NC(=O)/C=C/c4ccco4)c3)nc2c1
→ 5, ., ?, ., ., ., ., 0.9, 0.81
COc1cc(Cl)c(C)cc1NC(=O)c1cccc(OC)c1OC
→ 1, -0.4, -13%, i, -4, 16, 1.7, -0.1, 0.65
Cc1ccc(C)c(-n2c(-c3ccco3)n[nH]c2=S)c1
→ 59, -0.4, ., i, -6, 0, 3.0, 0.5, 0.66
COc1ccccc1N1CCN(C(=O)c2c(-c3ccccc3)noc2C)CC1
→ 38, ., ?, ., ., ., ., 3.7, 0.71
O=C(NCc1ccccc1)C(c1cc2ccccc2o1)n1c(=O)c(-c2cc3ccccc3[nH]2)nc2ccccc21 (stereo not drawn)
→ ., -3.2, ., i, 3, 4, 2.6, -1.5, .
NC(=O)c1ccc(SCC(=O)OCC(=O)NCC2CCCCC2)c([N+](=O)[O-])c1
→ -24, 0.0, ., i, 7, 6, -3.1, -0.7, .
CC(C)c1nnc(NC(=O)COc2ccc3c(c2)OCO3)s1
→ -15, 0.3, ., i, 4, 6, -2.7, 2.6, 0.72
Cc1ccc(NC(=O)CCC(=O)OC(C(=O)c2ccc(C)c(C)c2)c2ccccc2)c(C)c1 (stereo not drawn)
→ -11, ., -3%, ., ., ., ., -2.2, 0.69
C[C@H](CO)N1C[C@H](C)[C@H](CN(C)S(=O)(=O)c2cn(C)cn2)Oc2c(NC(=O)CCCCCC(=O)Nc3ccccc3N)cccc2C1=O
→ ., -2.4, ., i, 1, 2, -2.3, ., .
COc1cc(O)c(C(CC(=O)N2CCCCC2)c2cc(OC)c(OC)c(OC)c2)c(OC)c1 (stereo not drawn)
→ 23, -2.2, ., i, -8, -1, -6.3, -1.8, 0.62
Cc1cccc(NC(=O)CN(C)S(=O)(=O)c2ccc(-c3ccc(=O)[nH]n3)s2)c1C
→ -2, 0.5, ., i, -12, 0, -1.9, 1.8, 0.71
CC1(C)CC(=O)C=C(c2ccc(Cl)c(C(F)(F)F)c2)C1
→ 4, -0.7, ., i, 2, 0, -10, -2.6, 0.64
Cc1ccccc1C(=O)Nc1ccc2c(c1)CCCN2C(=O)c1cccs1
→ -2, 0.9, ., i, -28, -32, -7.7, 0.4, 0.73
COc1cccc(NC(=O)CCN2CCN(c3ccccc3F)CC2)c1
→ -2, ., -9%, ., ., ., ., 2.7, 0.71
CCCc1nnc(NC(=O)CCC(=O)Nc2ccc(Br)cc2)s1
→ ., -3.2, ., i, 3, 16, -2.7, -0.4, 0.7
O=C(N/N=C/c1ccco1)c1cccc([N+](=O)[O-])c1
→ 8, -1.8, 6%, i, -1, 13, -0.4, 1.2, .
CCO[C@H]1OC(C(=O)NCc2nc3ccccc3[nH]2)=C[C@@H](C2CCCCC2)[C@@H]1CCCO
→ ., -10, -6%, i, -28, -63, -1.4, 3.4, .
CCOCc1[nH]c(=S)[nH]c(=O)c1Cc1ccc(OCC(C)C)cc1
→ -28, -2.3, 6%, i, -6, -8, -0.7, -0.6, 0.71
C[n+]1ccccc1N1CCN(c2ccccc2Cl)CC1
→ 2, ., -2%, ., ., ., ., 3.2, 0.66
CC(C)(C)NC(=O)NC(=O)COC(=O)Cc1ccc(Cl)cc1Cl
→ ., 1.7, 2%, i, -19*, -0.7*, -0.6*, 1.9, 0.63
COc1cc(/C=C/C(=O)OCC(=O)NCc2cccs2)ccc1OC(F)F
→ -1, ., ., ., ., ., ., 3.2, 0.7
O=C1NC[C@H](c2ccccc2)OC(=O)[C@H](Cc2ccc(F)cc2)CC/C=C/C[C@@H]1CC(=O)N(CCO)Cc1ccccc1
→ -6, 0.4, ., i, -1, -8, 5.0, -2.3, 0.82
O=C(Cn1cnc2scc(-c3ccc(F)cc3)c2c1=O)NCC(c1ccco1)N1CCCC1 (stereo not drawn)
→ ., 0.2, 21%, i, -3, -10, 0.7, -1.3, 0.7
CCn1cc(Br)c(C(=O)NN)n1
→ -2, ., 0%, ., ., ., ., -0.9, 0.72
CC=Cc1ccc2n(c1=O)C[C@@H]1[C@@H](CO)[C@H](C(=O)NCCc3cn(C)cn3)[C@H]2N1C(=O)CC (mixture of isomers)
→ ., 1.8, ., i, 4, 9, -1.4, ., .
O=C(NC1CCCCCCC1)c1ccc(Br)o1
→ -1, 0.4, ., i, -7, -10, -5.8, 0.9, 0.71

An excerpt from above in order of the rRNA inh HTS value, falling.
SMILES | ALR H2O2 inh | MLL AF4-AF9 inh | Vif TR-FRET | rRNA inh HTS | rRNA inh HTS OD600 | rRNA inh HTS RFP
O=c1c2ccccc2ncn1CCc1ccncc1 | . | -8.4 | -5% | 7 | 15 | -3.8
CC(C)c1nnc(NC(=O)COc2ccc3c(c2)OCO3)s1 | -15 | 0.3 | . | 4 | 6 | -2.7
CCO[C@H]1OC(C(=O)NCc2nc3ccccc3[nH]2)=C[C@@H](C2CCCCC2)[C@@H]1CCCO | . | -10 | -6% | -28 | -63 | -1.4

(next part)
Value order: ALR H2O2 inh, MLL AF4-AF9 inh, Vif TR-FRET, FGF22 binding, rRNA inh HTS, rRNA inh HTS OD600, rRNA inh HTS RFP, HNF4A DNA FP, Ecoli growth
O=C(CSc1nnc(CNC(=O)c2ccccc2F)o1)Nc1ccc2c(c1)OCO2
→ 99*, 0.9, -5%, i, 6, 2, -0.3, -3.1, 0.67
COC(=O)c1c[nH]n2c(=O)cc(CCl)nc12
→ ., 3.1, 16%, i, 20, 10, 5.9, -6.5, 0.66
NC(=O)c1cccc(Nc2nc(C(N)Cc3ccc(C(F)(F)F)cc3)cs2)n1 (stereo not drawn)
→ ., 1.6, ., i, -62, -81, -18, 3.0, .
CCN(CC)c1ccc(NC2=C(Cl)C(=O)c3ccccc3C2=O)cc1
→ 18, ., 3.8µM*, ., ., ., ., 3.6, 0.69
O=C(CSc1nnnn1-c1ccc(F)cc1)c1ccc(O)c(O)c1
→ 98*, -1.2, 18%, i, -49, -75, -12, -1.7, 0.69
COc1ccccc1CC(=O)Nc1ccc(F)cc1F
→ -4, 0.3, 5%, i, -2, -13, -4.3, -0.3, 0.6
COc1ccc(NC(=O)Nc2ccc3c(c2)[C@@H]2C[C@@H](CC(=O)NC4CCCCC4)O[C@H](CO)[C@@H]2O3)cc1
→ ., -2.3, ., i, 2, 13, -1.0, ., .
Cc1ccc(OCC(=O)c2c(O)c3ccccc3oc2=O)cc1C
→ 29, ., 1%, ., ., ., ., -0.5, 0.67

From PubChem BioAssay

This is a subset, so the mix of outcomes need not match the whole.
